From PubChem BioAssay
TAR Tat displ – HIV-1 TAR-Tat binding disruption | HIV-1 TAR RNA, Tat peptide displacement FRET; stronger effect = higher value | z-score (concentration not given with the values) | hit rate 0.6% among 100,000;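 note: score is relative to mean and SD of negative controls; some compounds called inactive have numbers as strong as hits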
CDC25B CDK2 inh – human CDC25B-CDK2/CyclinA binding inhibition; P30305+P24941; z-score (no concentration beside the values); hit rate 0.72% among 94,000; HTRF CDC25B-CDK2/CyclinA binding, anti-His/anti-Flag; stronger effect = higher value; AID 1259370;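 note: score is relative to mean and SD of negative controls; strong numbers were not always called active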
The depositor's hits bear a star; / = not tested or not shown.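 Rule for the calls: active = z-score from 3 up in half or more of its runs; inactive = the rest.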

molecule | TAR Tat displ | CDC25B CDK2 inh
Cc1cccc(-c2nc(CSc3nnc(C)n4c3cc3occc34)c(C)o2)c1 | 1.56 | /
COc1ccc(-c2[nH]ncc2CN2CCN(c3ccccn3)CC2)cc1 | / | 0.17
O=C(CSC1=NCCc2ccccc21)Nc1ccc(F)cc1F | / | -5.04
CCN(CC)S(=O)(=O)c1ccc2c(c1)N(CC(=O)NC1CCC(C)CC1)C(=O)CO2 (configuration not stated) | 1.45 | -1.59
O=c1c2cccnc2n(Cc2ccccc2Cl)c(=O)n1Cc1ccccc1 | -0.34 | -0.2
CN(CC(=O)NCCCc1ccccc1)S(=O)(=O)c1ccc2c(c1)CCC(=O)N2 | / | -0.76
O=C(CSc1nc2ccsc2c(=O)n1-c1ccc(F)cc1)NC1CCCC1 | / | -2.29
Cc1ccc(-c2onc3ccc(C(=O)NCC4CCCO4)cc23)cc1 (configuration not stated) | 1.84 | /
O=C(CC1Sc2ccc(C(F)(F)F)cc2NC1=O)Nc1ccc(O)cc1 (configuration not stated) | / | -0.55
Fc1cccc(NC(=S)Nc2ccc3ccccc3c2)c1 | / | -2.77
COc1cccc(-c2nc3cc(OC)c(OC)cc3c(=O)o2)c1 | 0.68 | -1.17
O=C(CSc1ccsc1[N+](=O)[O-])N1CCN(c2ccccn2)CC1 | 1.58 | -0.98
Cc1nc(-c2cccs2)sc1NC(=O)Nc1ccc(Cl)cc1 | / | -1.9
NCCCCNC(=O)c1c(O)c2cccc3c2n(c1=O)CC3 | 0.34 | /
Cc1csc2ncc(C(=O)N3CCCc4ccccc43)c(=O)n12 | / | -0.79
O=C1CC(N2CCN(Cc3ccccc3)CC2)C(=O)N1CCc1ccccc1 (configuration not stated) | -0.17 | -1.81
O=C(OCCN(C1=NS(=O)(=O)c2ccccc21)c1ccc(Cl)cc1)c1cccs1 | -0.14 | -0.38
c1ccc(-c2noc(CSc3nnc(C4CC4)n3-c3ccccc3)n2)cc1 | -0.33 | -2.39
N/C(=N\OC(=O)c1cccc(C(F)(F)F)c1)c1cnccn1 | / | -0.99
CCc1nn(CC(=O)N2CCN(c3ccc(Cl)cc3)CC2)c(=O)c2cc3sc(C)cc3n12 | 1.2 | -4.93
CCCc1nc(SCC(=O)N2CCCc3ccccc32)c2c(=O)n(C)c(=O)n(C)c2n1 | 0.73 | /
COc1cc(C(F)(F)F)c(C(=O)NC2(O)C(=O)c3ccccc3C2=O)cn1 | / | -0.2
O=C(NCc1cccs1)C(=O)NCC(c1cccs1)S(=O)(=O)c1cccs1 (configuration not stated) | 1.81 | /
CCN1C(=O)C(CC(=O)Nc2ccc(F)cc2)N(Cc2ccco2)C1=S (configuration not stated) | / | -0.5
CCc1onc(C)c1C1CCCN1C(=O)Nc1ccc(Br)cc1F (configuration not stated) | 0.18 | /
CCNc1cc(N)[n+](CC)c2n[nH]c(/N=C/C=C/c3ccccc3)c12 | / | 0.03
Cc1cc(C)cc(-n2nnc(-c3nc(-c4ccc(F)cc4)no3)c2N)c1 | 1.49 | /
Cc1onc(-c2c(F)cccc2Cl)c1/C(N)=N/O | / | -0.45
COc1ccc(C2CC(=O)C3=C(C2)NC(=O)CC3c2cccs2)cc1OC (configuration not stated) | -0.25 | -1.6
COCCNc1ncnc2c1cnn2-c1cccc(Cl)c1 | 2.5 | /
CC1CCc2c(sc3nc(-c4ccc(Cl)cc4)cn23)C1 (configuration not stated) | -1.03 | -2.06
CCOc1cc(C2CC(=O)NC3=C2C(=O)CC(c2cc(OC)ccc2OC)C3)ccc1O (configuration not stated) | 2.58 | -0.89
CCN1Cc2cccc(CNc3cc(C)cc(C)c3)c2C1 | -0.36 | 1.29
O=S(=O)(c1ccc(-c2cc(C(F)(F)F)on2)s1)N1CCCCC1 | 0.57 | /
COc1ccc(NC(=O)COCc2cc(-c3ccco3)on2)cc1Cl | -0.47 | /
Cc1c(C)c(C)c(CSCc2n[nH]c(=S)n2-c2cccc(C(F)(F)F)c2)c(C)c1C | / | -0.47
O=c1cc(CSc2n[nH]c(-c3cccs3)n2)c2ccc(O)cc2o1 | / | -1.75
O=C(CSc1nc2ncccc2o1)NCc1ccco1 | -0.28 | /
O=C(O)CCn1c(SCCc2ccccc2)nc2ccccc21 | / | -0.16
Cc1cn2c3ccccc3n(CCN3CCCC3)c2n1 | -0.61 | -1.7
CCC(=O)N1c2ccc(S(=O)(=O)CCC(=O)Nc3ccc(C)cn3)cc2CC1C (configuration not stated) | 0.96 | /
Clc1cccc(-c2noc3ncnc(NCCN4CCOCC4)c23)c1 | 1.02 | /
NC(=O)c1c(NC(=O)c2csc3c2CCCC3)sc2c1CCCC2 | -0.01 | -0.32
N=S(=O)(O)Cc1noc2ccccc12 | / | -1.87
COC(=O)c1cc(S(=O)(=O)Nc2cc(Cl)c(OC)cc2OC)cn1C | 1.91 | -0.51
COC(C)(OC)c1ccc(C#N)c(=S)[nH]1 | / | -1.19
Clc1ccccc1OCCn1c(C2CCCO2)nc2ccccc21 (configuration not stated) | -0.58 | -1.13
Brc1ccc(-c2noc(-c3cc(-c4ccco4)n[nH]3)n2)cc1 | -10.9 | /
Cc1nc(-n2[nH]c(C)c(CC(=O)N3CCCCC3)c2=O)sc1C | -0.36 | -2.31
COc1ccc(-c2noc(-c3nnn(-c4cc(C)ccc4OC)c3C)n2)cc1 | -2.51 | /
CCOC(=O)CSc1nnc(Cc2ccc(Cl)cc2)c(=O)[nH]1 | / | -0.37
CC1CC2C3CCC4=CC(=O)C=C[C@]4(C)[C@@]3(F)[C@@H](O)C[C@]2(C)[C@@]1(O)C(=O)CO (some centres not stated) | 0.81 | -1.32
COC(=O)c1sc2cccc(F)c2c1S(=O)(=O)N1CCN(c2cccc(OC)c2)CC1 | -0.41 | /
O=C(c1cccc(F)c1)N1CCN(C2CC3CCC2C3)CC1 (configuration not stated) | / | -0.86
COc1cc(Br)ccc1C1C(C(=O)OC2CCCCC2)=C(C)Nc2nnnn21 (configuration not stated) | 0.45 | -0.1
COc1cc(CCC(=O)Nc2c(C(=O)N3CCC(C)CC3)oc3ccccc23)on1 | 0.19 | 0.37
COc1ccc(C2CN=NC23C(=O)c2ccccc2OC3c2ccccc2)cc1 (configuration not stated) | / | 0.34
CCC(C)NC(=O)c1cc(Cl)c(NC(=O)C2=C(C)OCCS2)cc1OC (configuration not stated) | 0.71 | /
CC1=C(c2ccc(C)c(C)c2)S(=O)(=O)N=C1Nc1ccc(F)cc1F | -2.14 | -0.62
CCCCN(c1ccccc1)S(=O)(=O)c1cc2c3c(c1)CC(=O)N3CCC2 | 1.95 | /

Next section:
molecule | TAR Tat displ | CDC25B CDK2 inh
COC(=O)CN1C(=O)COc2ccc(S(=O)(=O)NC3CCCC3)cc21 | 1.01 | /
Cc1ccccc1-n1c(SCC(=O)O)nc2sc3c(c2c1=O)CC(C)(C)OC3 | / | -0.68
CC1CN2C(=O)Cc3c(S(=O)(=O)N4CCN(C5CCCCC5)CC4)ccc(c32)S1 (configuration not stated) | -1.85 | /
N=C(N)SCCc1cnc[nH]1 | / | 0.41
Cc1cc(=O)[nH]c(NCc2ccco2)n1 | 0.35 | -1.84
CSc1ccc(C2c3c(-c4ccccc4O)n[nH]c3C(=O)N2Cc2ccncc2)cc1 (configuration not stated) | 1.46 | -1.1
Fc1cccc(Cl)c1CSc1nc2ncccc2o1 | 1.29 | /
CSc1[nH]n2c(=O)cc(C)nc2c1S(=O)(=O)c1ccccc1 | -1.28 | -3.79
CCOC(=O)C1=C(C)Nc2nc3ccccc3n2C1c1ccc(O)cc1 (configuration not stated) | 0.93 | -0.75
CC(C)NC(=O)c1cc2c(Cl)ccc3c2n1CCO3 | 0.37 | /
CCOc1ccc(Nc2nc3ccccc3c3nnc(C)n23)cc1 | 1.21 | -1.84
NC(=O)c1c(SCc2ccccc2)sc(C(=O)c2ccccc2)c1N | / | -1.53
COCCCNc1nc(Nc2ccc(OC)cc2)c2cnn(C)c2n1 | 0.65 | /
C=C1C(=O)O[C@@H]2C3OC3(C)CC/C=C(\C)CC[C@@H]12 (some centres not stated) | 0.71 | /
Cc1ccc(Cl)cc1-n1nnc(-c2nc(-c3ccc4c(c3)OCO4)no2)c1N | 0.09 | /
Cc1ccc2oc(C(=O)Nc3sc4c(c3C(=O)NCc3cccnc3)CCCC4)cc(=O)c2c1 | -8.29 | -1
COc1cc(OC)c(NC(=O)N2CCn3c(C)ccc3C2C(C)C)cc1Cl (configuration not stated) | -0.24 | /
CC1(C)CC(=O)c2c(oc3c2cc(NS(=O)(=O)c2ccccc2)c2ccccc23)C1 | / | 2.2
O=C(OCc1cc(=O)n2nc(C3CC3)sc2n1)c1ccco1 | -0.66 | /
CCOC(=O)C1C(=O)NC(N2CCCCC2)=NC1c1ccco1 (configuration not stated) | 1.56 | -1.7
CC(C)C1Nc2ccccc2S(=O)(=O)N1 (configuration not stated) | 1.16 | /
Cc1nn(-c2nncc(-c3ccccc3)n2)c2c1C(c1ccc(Cl)cc1)CC(=O)N2 (configuration not stated) | 3.44 | -2.28
Cc1nc2c3ccccc3n3c(CCCC(=O)N4CCN(c5ccc(F)cc5)CC4)nnc3n2n1 | 1.15 | 0
CC(=O)O[C@]1(C(C)=O)CCC2C3C=C(Cl)C4=CC(=O)CC[C@]4(C)C3CC[C@@]21C (some centres not stated) | -0.04 | /
CCCCn1cc(S(=O)(=O)c2ccccc2)c(=O)c2cc(F)c(N3CCN(C)CC3)cc21 | 0.22 | /
CCC(C(=O)NCc1cccs1)n1nc(C)c2sc3ccccc3c2c1=O (configuration not stated) | 4.03* | -2.66
O=S(=O)(Cc1ccccc1)NC(c1nnc(-c2ccccc2)o1)c1ccccc1F (configuration not stated) | 0.98 | /
Cn1cc(S(=O)(=O)c2ccccc2)c(=O)c2cc(F)c(N3CCN(c4ccc(F)cc4)CC3)cc21 | -1.37 | /
C=CCn1c(SCC(=O)NCCN2CCOCC2)nc2sc3c(c2c1=O)CCCC3 | 1.64 | -0.84
C=C(C)Cn1c(=O)n(Cc2ccccc2)c(=O)c2cc3c(nc21)CC(C)(C)OC3 | 0.84 | -1.52
Fc1ccccc1-c1ccc(-c2nn3c(-c4ccco4)nnc3s2)o1 | 19.9* | -0.12
COc1ccc(Cl)cc1Nc1c(-c2ccc(Cl)cc2)c(=O)c1=O | 0.58 | /
CCOc1ccc(Nc2nc(SC)nc3c2CCC3)cc1 | 1.71 | -0.78
COc1ccc2c(c1)c(C(=O)OCCN(C)C)c(C)n2C | 1.8 | 0.65
CCC1CCCCN1CCCNC(=O)Nc1cn(CC(C)C)c(=O)c2ccccc12 (configuration not stated) | -0.07 | /
Cc1ccc(-c2nsc(NC(=O)c3oc4ccc(F)cc4c3C)n2)s1 | -2.49 | -0.41
CCc1cc2c(NCCN3CCCc4ccccc43)ncnc2s1 | 1.23 | /
CCn1c(Cn2cccn2)nc2cc(NC(C)=O)ccc21 | -0.1 | -1.68
COCCn1c(SCc2cccc(C)c2)nnc1-c1c[nH]c2ccccc12 | / | -2.16
Cc1cc(-c2ccc(C(C)C)c(S(=O)(=O)Nc3ccc(S(N)(=O)=O)cc3)c2)on1 | -0.06 | /
Cn1c(=O)c2c(ncn2CC(=O)Nc2ccc(F)cc2F)n(C)c1=O | 1.33 | -0.57
Cc1cc(C)c2c(=O)cc(C(F)(F)F)oc2n1 | -1.34 | 0.03
Cc1ccccc1-c1noc(-c2nnn(-c3ccc(F)cc3F)c2N)n1 | -0.66 | /
Cc1nc2ccc(NC(=O)CS(=O)(=O)c3ccc(Cl)cc3)cc2s1 | 1.53 | /
O=c1ccc([N+](=O)[O-])ccc1Nc1ccccn1 | -3.58 | -1.29
CCn1cc(S(=O)(=O)c2cccc(Cl)c2)c(=O)c2cc(F)c(N3CCOCC3)cc21 | 0.33 | /
O=C(NC1CCCCC1)c1ccc2snnc2c1 | -0.22 | -0.42
Cc1cc(/C=C2\N=COC2=O)ccc1C(F)(F)F | / | -1.73
CCN(CC)C(=O)C1CCC(Cn2c(=O)[nH]c3ccsc3c2=O)CC1 (configuration not stated) | 1.94 | /
FC(F)(F)c1ccnc(N2CCN(C(=S)Nc3ccccc3N3CCOCC3)CC2)n1 | / | -1.16
CCOC(=O)Cn1c(=O)n2nc(CCn3nc(C)cc3C)nc2c2ccccc21 | / | -0.02
CCOC(=O)c1noc2nc(C)nc(Nc3ccc(OC)cc3)c12 | -1.04 | /
COc1cc(C(Nc2ccccn2)c2ccc3cccnc3c2O)cc(Br)c1OC (configuration not stated) | / | -0.62
Cc1cc(-c2ccc(S(=O)(=O)Nc3cccc(C)n3)s2)on1 | 0.62 | /
CCOC(=O)CNC(=O)N1CCC(CN2CCCCC2)CC1 | 0.85 | /
COc1ccc(NC(=O)CC2NCCNC2=O)cc1 (configuration not stated) | / | -1.54

Compounds were not picked by outcome; about 0.94% have a hit in one of these screens.
